CSC inhib – blocks cancer stem cells; cancer stem cell-like cells viability, luminescence; 300,000 tested, 1.1% active; inhibition, % at 7.5 µM;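 active = mean at 75% or more and at least half the replicates too; inconclusive = mean and replicates disagree; tested in HMLE shEcad cells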;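 also: 0% = median of negative and 100% = median of positive control wells; the first replicate is given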
UUG fidelity – yeast start codon fidelity modulation; S. cerevisiae UUG-firefly luciferase reporter, luminescence/redox ratio; activity score, % at 18.7 µM; 350,000 tested, 0.13% active;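 active = replicate mean at a twofold rise or more, about +100% in these data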;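 also: firefly luciferase made from a UUG start codon reports start codon fidelity; reporter light over untreated wells divided by growth signal over untreated wells; some hits fall short of that in this replicate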
PABP polyA inh – PABP-poly(A) binding inhibition. P11940. PABP-poly(A) RNA binding, fluorescence polarization. inhibition, % at 35 µM. 290,000 tested, 1% active. AID 2014;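 active = 50% or more with normal probe brightness, or confirmed in later tests; inconclusive = above 50% with abnormal brightness, or retests that disagree; inactive = below 50% or failed in later tests; about a fifth of its hits are not listed in these tables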;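 also: calls also rest on retests at 20 µM and on dose response follow-up; controls were probe without protein and protein plus probe with vehicle; some compounds called inactive have numbers as strong as hits; many hits fall short of the cut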
Target sequence (P11940 whole entry, looked up): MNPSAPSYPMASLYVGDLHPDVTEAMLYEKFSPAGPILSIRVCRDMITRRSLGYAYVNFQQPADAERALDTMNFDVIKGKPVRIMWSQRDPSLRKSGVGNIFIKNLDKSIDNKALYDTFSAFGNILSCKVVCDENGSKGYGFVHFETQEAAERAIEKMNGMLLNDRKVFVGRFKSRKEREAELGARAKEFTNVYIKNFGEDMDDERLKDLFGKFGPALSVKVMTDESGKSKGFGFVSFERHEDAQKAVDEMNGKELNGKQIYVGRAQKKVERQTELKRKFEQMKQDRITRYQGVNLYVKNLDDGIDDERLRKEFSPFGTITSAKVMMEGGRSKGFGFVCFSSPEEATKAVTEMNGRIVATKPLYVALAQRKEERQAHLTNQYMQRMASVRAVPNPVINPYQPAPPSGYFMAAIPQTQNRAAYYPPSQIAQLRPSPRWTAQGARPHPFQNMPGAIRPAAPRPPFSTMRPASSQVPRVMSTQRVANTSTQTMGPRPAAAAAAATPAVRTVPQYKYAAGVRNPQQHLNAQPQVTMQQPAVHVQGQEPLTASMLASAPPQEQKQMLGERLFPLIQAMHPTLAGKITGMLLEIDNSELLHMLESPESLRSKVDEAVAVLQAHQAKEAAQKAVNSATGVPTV
HIV Env fusion – inhibitors of HIV Env-mediated cell fusion; HeLa-JRFL Env/CEM21 cell fusion, luciferase; inhibition, % at 12.3 µM; 360,000 tested, 1.1% active;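 active = mean replicate inhibition score of at least 50 and every replicate individually at or above 50; inconclusive = only one of the two criteria met; inactive = mean below 50 and not all replicates reaching 50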;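 also: 0% = plate neutral controls and 100% = maraviroc near 300 nM; one replicate is shown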
MT1-MMP act inh – MT1-MMP (human) activation inhibition; HT1080 RFP-PRO-GFP cells, GFP/RFP ratio fluorescence, overnight; percent of plate control window, DMSO zero; GFP/RFP ratio change, % at 20 µM; 360,000 tested, 0.061% active; P50281;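 active = GFP/RFP ratio change of at least 30% with cell ATP level not reduced by more than half and red fluorescence within 50% of control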; also: strong numbers were not always called active
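Read-out: GFP/RFP fluorescence ratio; Test system: RFP-PRO-GFP reporter HT1080 cells; Compound dosing: single-point 20 µM compound, 1% DMSO; Times: overnight compound exposure at 37 °C.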
Rce1 inhib – yeast Ras-converting enzyme inhibition; Q03530; yeast membranes, quenched prenylated peptide cleavage fluorescence; calls only; 290,000 tested, 0.27% active;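 active = fall in fluorescence gain of 50% or more versus controls, with final raw signal at or below 3038400; inconclusive = same 50% fall but final raw signal above 3038400; inactive = fall in fluorescence gain under 50%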;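 also: plate controls were neutral control wells for no effect and wells lacking membranes for full effect; tested at 10 µM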
Target sequence (Q03530 whole entry, looked up): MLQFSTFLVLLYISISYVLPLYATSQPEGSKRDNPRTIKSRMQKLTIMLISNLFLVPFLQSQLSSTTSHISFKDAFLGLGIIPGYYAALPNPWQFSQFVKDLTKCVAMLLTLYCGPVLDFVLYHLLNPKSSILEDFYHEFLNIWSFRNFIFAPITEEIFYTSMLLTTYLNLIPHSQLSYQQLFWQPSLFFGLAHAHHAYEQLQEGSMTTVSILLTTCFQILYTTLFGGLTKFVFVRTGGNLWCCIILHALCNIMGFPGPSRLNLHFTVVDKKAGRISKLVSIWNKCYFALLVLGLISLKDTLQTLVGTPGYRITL
eIF4H inh – inhibitors of RNA binding by human eIF4H. Q15056. AID 2012. inhibition, % at 35 µM. 290,000 tested, 0.94% active. eIF4H fluorescence polarization binding assay;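 active = 50% or more with normal probe brightness, or confirmed in later tests; inconclusive = above 50% with abnormal brightness, or retests that disagree; inactive = below 50% or failed in later tests; about a fifth of its hits are not listed in these tables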;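 also: calls also rest on retests at 20 µM and on dose response follow-up; 0% = protein and probe with vehicle and 100% = probe without protein; strong numbers were not always called active; many hits fall short of the cut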
eIF4H inh retest – further read-out of eIF4H inh, marked with its call; inhibition, %; compound at 20 µM; confirmation average;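 mean of two retest wells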
PABP polyA inh retest – also measured in PABP polyA inh; calls as there; inhibition, %; compound at 20 µM; confirmation repeats;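 mean of two retest wells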
MT1-MMP act inh RFP – further read-out of MT1-MMP act inh, marked with its call; RFP signal change, %; measured here: RFP expression control read;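 0 = vehicle wells; hits needed this value within 50% of zero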
The depositor's hits bear a star; i = inactive; ? = inconclusive; nt = no result given; + = active, no number; & = joins results of further samples.

SMILES | CSC inhib | UUG fidelity | PABP polyA inh | HIV Env fusion | MT1-MMP act inh | MT1-MMP act inh RFP | Rce1 inhib | eIF4H inh | others
Cc1ccc(C2CC(c3ccccc3OC(F)F)Nc3ncnn32)cc1 (stereo not given) | -9.7 | -23.8 | -4.0 | nt | -1.3 | -1.4 | i | -3.3
Cc1c(C(=O)NCc2ccc(C#N)cc2)sc(=O)n1Cc1ccccn1 | nt | -17.2 | nt | -21.0 | 2.7 | 3.2 | nt | nt
CC(=O)N1CCc2cc(NC(=O)c3ccc(C)cc3)ccc21 | 1.0 | 8.9 | -12.8 | -110.0 | 10.4 | 0.2 | i | -4.2
Cc1nc(CC(=O)O)c(-c2ccccc2)s1 | -2.6 | -13.7 | 9.4 | -11.0 | 0.8 | 5.0 | nt | 3.1
CCC(Oc1ccccc1)C(=O)N(Cc1ccccc1)c1ccccn1 (stereo not given) | 6.7 | nt | 10.8 | -62.4 | -3.5 | -3.8 | i | 1.0
C[C@H]1CN([C@@H](C)CO)S(=O)(=O)c2ccc(Br)cc2O[C@H]1CN(C)S(=O)(=O)c1ccccc1F | nt | -7.7&27.3 | nt | ? | -0.5 | 1.1 | nt | nt
Cc1cc(C(=O)N/N=C/c2cccs2)no1 | 8.9 | -6.2 | 11.3 | nt | 1.1 | 4.2 | i | -4.2
O=C(O)c1cn(-c2ccc(F)c(F)c2)c2c(F)c(F)c(F)c(F)c2c1=O | 5.2 | -9.0 | -2.4 | 21.2 | -6.0 | -6.9 | i | 5.7
CC(C)Cn1c(N)c(C(=O)COC(=O)c2ccc(F)cc2)c(=O)n(C)c1=O | -9.8 | nt | 7.9 | 2.1 | 0.3 | -9.9 | i | 12.4
COc1cc(OC)c(OC)cc1/C=N/NC(=O)c1ccc(=O)n(C)c1 | -1.8 | nt | 11.0 | 23.7 | -1.8 | 0.1 | i | -20.7
CNC(=O)CSc1nc2ccccc2c(=O)n1-c1cc(OC)ccc1OC | 5.6 | 12.0 | -1.5 | 3.6 | 2.5 | 5.1 | i | -1.7
COc1cccc(-c2nc(-c3ccc(Br)o3)no2)c1 | 7.3 | -17.1 | -2.2 | -99.2 | 3.2 | 5.4 | i | 4.3
COc1ccc(-c2nc(CN3CCN(Cc4cccc(Cl)c4)CC3)c(C)o2)cc1 | -11.5 | -13.0 | 5.5 | 11.5 | 1.3 | -0.2 | i | -4.2
COC(=O)C1=C(C)NC(=O)CC1c1ccc(C(=O)OC)cc1 (stereo not given) | -4.8 | -3.3 | -4.3 | nt | 9.4 | 7.3 | i | 1.2
O=C(CNc1ccc(Br)cc1)Nc1cccc(S(=O)(=O)N2CCCC2)c1 | 20.1 | 15.2 | nt | 9.7 | 5.0 | -10.0 | nt | nt
Cc1ccc(-c2ccc(/C=N/NC(=O)CN3CCOCC3)o2)cc1[N+](=O)[O-] | -11.4 | nt | 5.9 | 9.0 | 1.1 | 1.7 | i | 57.0 | eIF4H inh retest=-12.5;PABP polyA inh retest=31.4
O=C(Cn1cc(C(=O)C2CCCCC2)c2ccccc21)NCC1CCCO1 (stereo not given) | -10.0 | -15.5 | 21.5 | 0.3 | 3.6 | 3.2 | i | 3.1
CCN(CC(=O)Nc1ccc2c(c1)OCCO2)S(=O)(=O)c1ccc(F)cc1 | -10.3 | -2.7 | 1.5 | -19.0 | -0.2 | 0.6 | i | -2.3
CCOCCCNCc1cc(Br)ccc1OCc1ccccc1 | 6.3 | nt | 3.5 | -98.1 | 0.8 | -2.1 | i | -3.8
NC(=S)N/N=C/c1ccccc1OCc1cccc(Cl)c1 | -0.8 | -35.1 | -2.4 | nt | -7.2 | -12.5 | i | -7.2
Cc1ccc(NC(=S)N(Cc2cccs2)Cc2cc3cccc(C)c3[nH]c2=O)cc1 | 51.5 | nt | -6.2 | 0.0 | -2.9 | -5.1 | i | -5.5
CS(=O)(=O)Nc1ccccc1C(=O)NCc1ccccc1Cl | -9.8 | -18.8 | -10.1 | -7.9 | 7.1 | -0.5 | + | -1.3
O=C(Nc1ccc(NC(=O)c2cccnc2Cl)cc1)c1cccc(Cl)c1 | -1.1 | nt | -5.4 | 5.6 | 3.6 | 1.2 | i | -11.8
Cc1cc(C(=O)Nc2c(F)cc(F)cc2Br)c(C)o1 | -3.7 | -25.1 | 6.7 | -15.7 | 4.0 | 8.9 | i | -2.7
O=C(c1cccc(F)c1)N1CCN(c2ccc([N+](=O)[O-])c3cccnc23)CC1 | nt | nt | 1.4 | 8.4 | 4.4 | -1.1 | i | 11.7
CC1CC(=O)C2=C(C1)Nc1ncnn1C2c1ccccc1 (stereo not given) | -1.9 | -8.3 | -10.2 | -9.8 | -3.2 | -2.6 | nt | -13.7
Cc1ccc(S(=O)(=O)N(C)CCCC(=O)Nc2ccncc2)cc1 | -3.6 | -17.0 | -7.7 | 6.4 | -1.8 | -20.9 | i | -17.3
O=C(c1cc(COc2c(F)cccc2F)on1)N1CCN(C2CCCCC2)C(=O)C1 | -12.0 | 1.7 | 3.8 | 1.4 | 0.0 | -3.9 | i | -4.3
CN(CC(=O)NCc1cccs1)CC(=O)Nc1ccc(F)c(F)c1F | -9.6 | -2.5 | -6.9 | 18.2 | 1.1 | 6.0 | nt | 13.5
Cc1c2cnn(CC(=O)NCCCN3CCCCC3C)c(=O)c2c(C)n1Cc1ccccc1 (stereo not given) | -3.8 | -6.1 | -2.5 | -112.3 | -5.6 | -1.3 | i | 2.5
O=S1(=O)N=C(N/N=C/c2ccco2)c2ccccc21 | 11.8 | -1.9 | 1.6 | 5.7 | -0.5 | 3.4 | nt | 4.1
NS(=O)(=O)c1cccc(NC(=S)NC(=O)c2cccc([N+](=O)[O-])c2)c1 | 1.8 | -24.8 | -4.2 | 5.1 | 3.3 | -3.2 | i | -0.4
CCc1noc(C)c1C(=O)Nc1nc(-c2cccs2)cs1 | -9.7 | 4.9 | nt | nt | -2.4 | -8.3 | i | nt
O=C(N/N=C/c1cccs1)c1ccc(-n2cccc2)cc1 | nt | nt | 4.9 | -4.2 | 1.0 | 3.5 | i | -1.6
CCCCn1c(N)c(N(CC(C)C)C(=O)c2ccc(-c3ccc([N+](=O)[O-])cc3)o2)c(=O)[nH]c1=O | -14.2 | -0.9 | nt | 6.6 | -1.2 | 0.9 | i | nt
O=C(CSc1nc2ccccc2o1)Nc1ccc(Cl)cc1 | 1.7 | -19.5 | -6.7 | -45.9 | 8.6 | -7.0 | i | 1.5

The final 2 compounds of the section before open the next one:
SMILES | CSC inhib | UUG fidelity | PABP polyA inh | HIV Env fusion | MT1-MMP act inh | MT1-MMP act inh RFP | Rce1 inhib | eIF4H inh | others
CCCCn1c(N)c(N(CC(C)C)C(=O)c2ccc(-c3ccc([N+](=O)[O-])cc3)o2)c(=O)[nH]c1=O | -14.2 | -0.9 | nt | 6.6 | -1.2 | 0.9 | i | nt
O=C(CSc1nc2ccccc2o1)Nc1ccc(Cl)cc1 | 1.7 | -19.5 | -6.7 | -45.9 | 8.6 | -7.0 | i | 1.5
COc1ccc(CC2(C)OC(c3ccc(C)c([N+](=O)[O-])c3)=NN2C(C)=O)cc1 (stereo not given) | 15.8 | nt | -5.0 | 21.4 | -4.5 | -5.8 | i | -14.5
CCc1ccccc1NC(=O)C1CCCN(c2ncnc3onc(-c4ccc(F)cc4)c23)C1 (stereo not given) | -21.1 | -9.7 | 8.8 | 8.3 | 4.1 | 0.0 | i | 3.8
Cc1c(Cl)cnc(NC(=O)COC(=O)CNC(=O)c2ccccc2)c1Cl | 10.7 | -15.8 | nt | -6.7 | -1.3 | 4.7 | nt | nt
O=C(O)C1CCCN(C(=O)c2cccc3ccccc23)C1 (stereo not given) | 0.5 | -12.5 | 0.0 | 1.4 | nt | nt | i | 0.0
CCOC(=O)c1ccccc1N1C(=O)C2Sc3[nH]c(=O)sc3C(/C=C/c3ccccc3)C2C1=O (stereo not given) | 9.8 | nt | -5.2 | -14.6 | -26.6 | 13.8 | i | 36.9
CC1CC1C(=O)OCC(=O)Nc1cccc([N+](=O)[O-])c1 (stereo not given) | -1.3 | nt | 56.5* | 3.0 | -0.1 | 2.3 | nt | ? | PABP polyA inh retest=97.8*
COc1ccc(CCNC(=O)Cc2cc(OC)c(OC)cc2Br)cc1OC | 7.4 | nt | -6.7 | 15.3 | -1.0 | -1.0 | i | -5.3
CCOC(=O)C1CCN(C(=O)C2CCN(S(=O)(=O)c3ccc4c(c3)CC(C)N4C(C)=O)CC2)CC1 (stereo not given) | 28.2 | -5.2 | nt | -6.0 | 2.5 | -4.4 | i | nt
Cn1c(N)cc(=O)n(Cc2ccccc2)c1=O | -3.8 | -2.0 | 13.3 | 7.5 | 0.4 | 3.5 | i | 5.5
Cc1cc(C(=O)N2CCC2(C)C(=O)NCCC#N)nn1C (stereo not given) | nt | -14.4 | nt | -7.6 | 6.4 | 2.9 | nt | nt
CCCn1c(SCC(=O)Nc2cc(S(=O)(=O)N3CCOCC3)ccc2OC)n[nH]c1=O | -5.9 | nt | 24.0 | nt | 2.4 | 1.7 | i | -5.0
COc1ccc(N=Nc2ccc(O)c3ncccc23)cc1 | 151.3* | -14.0 | -0.5 | -265.9 | 8.0 | -5.5 | i | 28.1
O=C(CNC(=O)c1ccc(-c2ccccc2)cc1)Nc1cccc(CO)c1 | -2.0 | 17.9 | nt | -6.6 | 0.4 | 6.0 | nt | nt
O=C1C2C3c4ccccc4C(c4ccccc43)C2C(=O)N1Cc1ccco1 (stereo not given) | 9.2 | -9.9 | 1.6 | nt | -0.2 | -4.1 | i | -3.4
O=C(NNS(=O)(=O)c1cc(Cl)cc(Cl)c1)c1sccc1-n1cccc1 | 8.0 | 12.0 | -5.6 | -59.4 | 1.6 | 0.0 | i | 0.4
O=S(=O)(c1ccccc1)c1nnn2c1nc(NC1CCN(Cc3ccccc3)CC1)c1ccccc12 | 16.8 | nt | -37.5 | -16.5 | -2.7 | -7.9 | i | -23.6
Cc1ccc(C)n1-c1nccc(-c2ccco2)n1 | -10.2 | -12.0 | 8.2* | -22.1 | -5.1 | -2.3 | i | 54.3* | eIF4H inh retest=106.1*;PABP polyA inh retest=79.6*
COCc1cc(=O)[nH]c(/N=C(\N)Nc2ccc(Oc3ccccc3)cc2)n1 | 5.9 | -5.4&1.0 | -0.2 | 47.4 | -1.6 | -0.7 | i | -3.8
Cc1noc(C)c1COc1ccc(C(=O)OCC(=O)Nc2c(C)n(C)n(-c3ccccc3)c2=O)cc1 | -16.8 | nt | 6.0 | -8.7 | 2.6 | 5.2 | i | 3.6
COc1cccc2cc(/C(=N/O)c3ccccc3)oc12 | -10.7 | nt | 20.1 | -2.1 | -0.7 | 1.1 | i | 4.4
O=C1CNC(=O)/C1=C\N1CCCCC1 | -19.9 | nt | 4.3 | nt | -1.1 | 5.7 | i | -0.5
CCOC(=O)c1cc(C)nnc1C(=O)OCC | nt | -19.6 | nt | 16.5 | 2.4 | 2.5 | nt | nt
CCOC(=O)CC(=O)CSc1ncnc2c1nnn2-c1ccc(F)cc1 | nt | nt | 2.8 | 5.6 | -8.9 | 5.3 | i | 40.1
CCCCCCCC[n+]1cccc(C(=O)N2c3c(nc(N)[nH]c3=O)NC(C)C2C)c1 (stereo not given) | 2.4 | nt | 7.8 | -31.3 | -1.5 | -0.4 | i | -9.0
CCN1CCCC1CNC(=O)c1cc(S(=O)(=O)N(C)C)ccc1Cl (stereo not given) | -11.9 | -7.3 | 11.5 | -4.3 | 0.2 | 2.8 | nt | 3.4

From PubChem
